HPGD inh – qHTS Assay for Inhibitors of HPGD (15-Hydroxyprostaglandin Dehydrogenase); 15-hydroxyprostaglandin dehydrogenase [NAD(+)] (Homo sapiens), P15428; purified HPGD, NADH fluorescence kinetic, PGE2 substrate; Potency, µM, for the others: at the highest dose activity change, negative = inhibition, most hits filed as inhibitors; 150,000 compounds, 4.3% hits; AID 894, 2007; active = well fitted inhibition curve with a large enough effect (not every such curve was filed as active); inconclusive = small, poorly fitted or top-dose-only effect, or another doubt; inactive = no such curve, though single readings can be large or run the other way;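 further: top concentration of the series not given in the record; plate controls included wells without enzyme; inactives centre near -10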
Target sequence (P15428 whole entry, looked up): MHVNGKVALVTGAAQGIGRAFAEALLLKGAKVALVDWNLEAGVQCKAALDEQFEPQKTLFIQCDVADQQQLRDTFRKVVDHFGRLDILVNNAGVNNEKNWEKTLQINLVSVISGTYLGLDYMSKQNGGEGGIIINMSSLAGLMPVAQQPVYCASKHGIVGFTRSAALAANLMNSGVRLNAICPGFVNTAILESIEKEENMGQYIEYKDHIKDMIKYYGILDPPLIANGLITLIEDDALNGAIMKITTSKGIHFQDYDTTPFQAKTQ
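NADH formation kinetics: reaction with 30 uM PGE2 and 1 mM NAD+ (final), 20 nM enzyme, Tris-HCl pH 8 with Tween 20, after 15 min compound preincubation at room temperature. Fluorescence change, last versus first of five reads.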
* marks the source's active call; other numbers are inactive results; u = inconclusive. On the % scale 0 is the no-effect control and ±100 the full control effect; potency means the concentration at half of the fitted maximal effect.

HPGD inh	smiles
-17%	C=CCc1cc(C)ccc1OCCOCCC(C(=O)OCC)C(=O)OCC
-12%	COc1cc(C2(O)CCCCC2C)cc(OC)c1OC (stereo not given)
-1%	COCCn1c(SCC(=O)Nc2ccc3c(c2)CCC3)nc2ccccc2c1=O
-17%	CN(C)c1nc(-c2ccccn2)nnc1-c1ccccc1
-3%	COc1ccc(C(=O)Oc2ccc3c(-c4ccc(OC)cc4)cc(=O)oc3c2)cc1
-13%	CSc1ccccc1OC1CCN(Cc2ccccc2)CC1
-25%	CC1CCc2nc3ccc(S(=O)(=O)N4CCC(C(=O)NC5CCCC5)CC4)cc3c(C(=O)O)c2C1 (stereo not given)
-11%	Cc1cc(C)nc(N2CCCC(C(=O)Nc3nnc(C(C)C)s3)C2)n1 (stereo not given)
25µM*	Cn1ncc(Cl)c1C(=O)NC(=S)Nc1sc2c(c1C#N)CCCCC2
-16%	CCCCOC(=O)n1c(SCC(=O)N(C)C)nc2ccccc21

Next part.
HPGD inh	smiles
u	Cc1cccc2sc(N(CCCN(C)C)C(=O)c3nc4ccccc4s3)nc12
-14%	O=C(c1ccncc1)N1CCC[C@@]2(CCN(c3ncccn3)C2)C1
-5%	C=CCc1cc(C)ccc1OCCn1ccnc1
-6%	O=C(CCN1C(=O)C2C3C=CC(C3)C2C1=O)NCc1cccnc1 (stereo not given)
u	C=CCOc1c(CNc2cccc(C(=O)O)c2)cccc1OCC
u	CSc1nc2ccccc2cc1/C=C(\C#N)c1ccccc1
-17%	O=C1CC(N2CCC(Cc3ccccc3)CC2)C(=O)N1CCc1ccccc1 (stereo not given)
-5%	CCc1nc2sc3ccccc3c(=O)c2c(=O)n1Cc1ccco1
-7%	O=S(=O)(N1CCCCC1)N1CCN(CC(O)COc2ccc3cc(Br)ccc3c2)CC1 (stereo not given)
-10%	CCOc1ccc(NC(=O)/C=C/c2ccc(OC)cc2)c([N+](=O)[O-])c1

(continued)
HPGD inh	smiles
-17%	COc1ccc(-n2nc(C(=O)NCC(=O)NCc3ccco3)c3ccccc3c2=O)c(OC)c1
-8%	C/C(=N/NC(=O)C1CCN(S(=O)(=O)c2ccc(C)cc2)CC1)c1cccc([N+](=O)[O-])c1
-9%	O=C(NCCN1CCOCC1)c1ccccc1Oc1ccccc1
-15%	CC(C)(C)n1ncc2c(=O)n(CC(=O)NCc3ccco3)cnc21
u	O=C(NN=C1C2CC3CC(C2)CC1C3)c1cc(Cl)ccc1O
-6%	O=C(NC1CCCC1)O[C@@H]1C(=O)c2cc(Br)ccc2O[C@H]1c1ccc2c(c1)OCO2
1%	CCn1c(CCCNC(=O)c2ccc(F)cc2)nc2ccccc21
-19%	CC1=CSC2=NC(=O)/C(=C/c3cccc(OC(=O)c4ccco4)c3)C(=N)N12
-17%	COc1cccc(C(=O)Nc2ccc(C(F)(F)F)n(C)c2=O)c1
-4%	COc1cc(NC(=O)C2CCCO2)c(OC)cc1NC(=O)c1ccccc1 (stereo not given)

Further results.
HPGD inh	smiles
0%	N#CC1=C(N)OC2=C(CC/C2=C\c2ccc(F)cc2)C1c1ccc(F)cc1 (stereo not given)
u	CCOC(=O)c1cc2c(=O)n3cccc(C)c3nc2n(Cc2ccco2)c1=NC(=O)c1cccnc1
-13%	COC(=O)c1ccc(CSc2nnc(Nc3cccc(OC)c3)s2)o1
-6%	Cc1cc(C)c2c(N)c(C(=O)c3ccc(Cl)cc3)sc2n1
-4%	O=C(c1cccc(F)c1)N1CCC(O)(c2cccnc2)CC1
-6%	CCc1cccc(NS(=O)(=O)c2ccc3c(c2)oc(=O)n3C)c1
-6%	CCOc1ccc(C(=O)CN2CCN(S(=O)(=O)c3ccc(OC)cc3)CC2)cc1
-7%	O=S(=O)(NCC1CCCO1)c1ccc(Br)s1 (stereo not given)
-10%	CCOCCc1nnc(NC(=O)CN2C(=O)c3ccccc3C2=O)s1
-2%	CCC(=O)c1ccc(OCC(=O)O)cc1

Marked active in HPGD inh, of those listed so far:
HPGD inh	smiles
25µM*	Cn1ncc(Cl)c1C(=O)NC(=S)Nc1sc2c(c1C#N)CCCCC2

Next part.
HPGD inh	smiles
-15%	Cc1ccc2c(CN3CCN(S(=O)(=O)c4ccc5c(c4)OCCO5)CC3)cc(=O)oc2c1C
-21%	CN(C(=O)c1ccno1)c1nnc(-c2cnccn2)s1
-14%	COc1ccc(NC(=O)c2ccc3nc(-c4ccccc4)c(-c4ccccc4)nc3c2)c(OC)c1
-4%	O=C(CCCc1ccccc1)NCc1cccnc1
-10%	CCSc1nnc(NC(=O)CSc2nnc(CNC(=O)c3cc(OC)c(OC)c(OC)c3)o2)s1
-1%	CN(C)CCNc1nc(-c2ccccc2)nnc1C(F)(F)F
28µM*	Cc1cc(C(=O)Nc2sc3c(c2C#N)CCCC3)no1
u	Cc1cc(=O)oc(C)c1C(=O)Nc1ccc2nsnc2c1
-8%	COc1ccc(C(c2nnnn2CC2CCCO2)N2CCN(c3ccccc3)CC2)cc1 (stereo not given)
-20%	O=[N+]([O-])c1cc(S(=O)(=O)N2CCCC2)ccc1N/N=C/c1cccs1

Next part:
HPGD inh	smiles
3%	CC(C)(C)NC(=O)C(c1ccco1)N(C(=O)Cn1nnc(-c2ccc(F)cc2)n1)c1cccc(F)c1 (stereo not given)
-7%	O=C(NN1C(=O)C2C3c4ccccc4C(c4ccccc43)[C@@H]2C1=O)c1ccccc1 (stereo not given in full)
u	O=c1[nH]c(N2CCCCC2)nc2c1CCCC2
-22%	Cc1ccc(CSc2nnc(SCC(=O)N/N=C/C=C/c3ccco3)s2)cc1
-15%	O=C(OC1CCCCC1)c1ccc(NC(=O)c2ccco2)cc1
4.5µM*	COc1cc(/C=C2\SC(N)=NC2=O)ccc1OCC(=O)Nc1ccc(C)cc1
-27%	O=C(Oc1nsnc1N1CCOCC1)c1ccccc1
-7%	Cc1nc2nc(COc3ccccc3)[nH]n2c(=O)c1Cl
u	CC(=O)c1ccc(OCC(=O)c2cc(C)n(-c3ccc4c(c3)OCO4)c2C)cc1
-10%	O=C(Cc1coc2ccc3ccccc3c12)N1CCN(c2ncccn2)CC1

The results go on:
HPGD inh	smiles
u	Fc1ccc(-c2nc3n(c2-c2ccncc2)CCS3)cc1
-1%	CCN(CC)C(=O)COc1ccc(-c2ccccc2)cc1
-7%	COCc1cc(C)n(CC(=O)Nc2ccccc2OC)c(=O)c1C#N
-5%	Cc1ccc(-c2ccccc2)n1-c1ccc(C(=O)O)cc1
u	CCc1nc2ccccc2n1Cc1cc(=O)n2cc(C)ccc2n1
-4%	Clc1ccc(-n2c(SCc3nc4ccccc4[nH]3)nnc2-c2ccncc2)cc1
-18%	NS(=O)(=O)c1ccc(NC(=S)NCc2ccccc2Cl)cc1
-8%	COC(=O)c1cc(-c2cccc(OC)c2)n[nH]1
-6%	COC(=O)c1sccc1NC(=S)N1CCN(c2ccccc2F)CC1
-5%	O=C(NC(CC(=O)N1CCN(c2ccccc2)CC1)c1ccccc1)c1ccccc1Cl (stereo not given)

Following part.
HPGD inh	smiles
-17%	O=C(c1ccco1)N1CCN=C1SCc1cccc(F)c1
-3%	CCOC(=O)CNS(=O)(=O)c1ccc(C)cc1
-4%	CC(C)NC(=O)N1CC[C@@]2(CCCN(C(=O)c3ccco3)C2)C1
-7%	COC(=O)C1C2CCC(C2)C1C(=O)OCC(=O)c1ccc(C)cc1 (stereo not given)
-3%	O=C(c1ccncc1)N1CCC2(CC1)CCN(c1ccncc1)CC2
-4%	N#Cc1ccc(C23CC4(C2)[C@H](CN(Cc2ccc(-c5ccccc5)cc2)[C@@H]4c2ccccc2)C3c2ccc(C(F)(F)F)cc2)cc1 (stereo not given in full)
-11%	CCC/C=C(\CCC)C(NS(=O)(=O)c1cccs1)c1ccc(C(=O)OC)cc1 (stereo not given)
-6%	CCc1nnc(NC(=O)CSc2nc3ccccc3c(=O)n2CCCOC)s1
-20%	Cc1cccc2cc3c(NC(=O)c4ccccn4)nn(C)c3nc12
-29%	C/C(=N/NC(=S)Nc1ccccc1)c1ccc2c(c1)OCO2

(more compounds)
HPGD inh	smiles
-7%	COc1nc(Oc2ccc(C(=O)OCC(N)=O)cc2)nc(N(C)C)n1
-2%	COC(=O)C1=C(C)N(CCc2cc(OC)c(OC)c(OC)c2)C(=O)N[C@H]1c1ccccc1
u	CCOC(=O)CNCCC(=O)c1ccc(Br)cc1
-12%	O=C(O)CC1NC(=S)N(c2ccccc2)C1=O (stereo not given)
-18%	CCn1c(SCC(=O)NCCOC)nc2sc(C)c(C)c2c1=O
-29%	C[C@H]1CC2[C@@H]3CCC4=CC(=O)C=C[C@]4(C)[C@@]3(Cl)[C@@H](O)C[C@]2(C)[C@@]1(O)C(=O)CO (stereo not given in full)
-23%	O=C(NCCc1ccccc1)c1cc(-c2ccc3c(c2)OCO3)on1
-7%	Clc1ccc(N2CCCCCC2)nn1
-8%	O=C(CCc1ccccc1)Nc1ncc2c(n1)CCCC2=O
-28%	CC(C)CNC(=O)c1c2c(nc3ccccc13)-c1ccccc1CC2

The list goes on.
HPGD inh	smiles
u	Fc1cccc(Oc2nc3ccccc3n3cccc23)c1
u	O=C(/C=C/c1c(C(=O)O)[nH]c2cc(Cl)cc(Cl)c12)Nc1ccccc1
-5%	O=C(Nc1cc(C(F)(F)F)ccc1Cl)c1cc(C2CC2)on1
u	CCCC(=O)Nc1nnc(-c2cccc(OCC)c2)s1
0%	CN(C)S(=O)(=O)c1ccccc1C#N
-14%	Cc1[nH]n(-c2ccccc2)c(=O)c1C=Nc1ccc(S(=O)(=O)N(C)C)cc1
-12%	COC1(OC)N=C(N)C2(C#N)C(c3ccc4c(c3)OCO4)C12C#N (stereo not given)
32µM*	Cc1ccc2nc(SCc3nnc(-c4cccs4)o3)[nH]c2c1
-14%	CC1CN(S(=O)(=O)c2cccc3nsnc23)CC(C)O1 (stereo not given)
u	CCCCOc1ccc(NC(=O)c2cnc(C)cn2)cc1

Following part:
HPGD inh	smiles
-9%	CCCn1c(=O)c2ccccc2n2c(SCC(=O)Nc3cc(C)on3)nnc12
25µM*	CSc1ccccc1NC(=O)COc1ccccc1Cl
-25%	O=C(Nc1ccc(Oc2ccc3ccccc3c2)cc1)c1ccco1
-12%	Nc1ccc(C(=O)OCC(=O)Nc2ccc3c(c2)OCO3)cc1[N+](=O)[O-]
-14%	O=C(O)Cn1c(-c2ccccc2)nc2ccccc21
-3%	CCC(C)(C)NC(=O)CN(C(=O)CCC(=O)Nc1ccccn1)c1ccc(F)c(Cl)c1
2%	Cn1c(=O)c2c(ncn2CC(=O)N2CCc3ccccc3C2)n(C)c1=O
-1%	COC(=O)c1ccc(NC(=S)NC2CCCCC2)cc1
-21%	O=C(NCC1OCCc2ccccc21)c1ccco1 (stereo not given)
-3%	O=C(Nc1cccc(O)c1)C(=O)Nc1ccccn1

Going on with the list:
HPGD inh	smiles
u	COc1cc(S(=O)(=O)N2CCOCC2)ccc1NC(=O)CN1c2cccc3cccc(c23)S1(=O)=O
u	CCOC(=O)Cn1nc(-c2ccccc2)c2cnc3ccc(CC)cc3c21
3.5µM*	O=S(=O)(NNc1ccc(Cl)nn1)c1ccc(F)cc1
-6%	O=C(c1ccco1)N1CCN(S(=O)(=O)c2ccc(C3CCCCC3)cc2)CC1
-12%	Cc1nc2ccccc2c2oc(C(=O)N3CCC(N4CCCCC4)CC3)cc12
-11%	CCN1CCN(C(=O)/C=C\C(=O)O)CC1
3%	O=S(=O)(c1cccc(-c2nnco2)c1)N1CCCC1
2%	CCCNS(=O)(=O)c1cc(Br)cc2c1N(C(=O)CC)CC2
-12%	Cc1[nH]c2ccccc2c1/C=C/c1cc[n+](C)cc1
-15%	CCNc1c(NC(C)=O)c(=O)oc2ccccc12

As a short view, some entries already given:
HPGD inh	smiles
-17%	C=CCc1cc(C)ccc1OCCOCCC(C(=O)OCC)C(=O)OCC
-12%	COc1cc(C2(O)CCCCC2C)cc(OC)c1OC (stereo not given)
-1%	COCCn1c(SCC(=O)Nc2ccc3c(c2)CCC3)nc2ccccc2c1=O
-17%	CN(C)c1nc(-c2ccccn2)nnc1-c1ccccc1
-3%	COc1ccc(C(=O)Oc2ccc3c(-c4ccc(OC)cc4)cc(=O)oc3c2)cc1
-13%	CSc1ccccc1OC1CCN(Cc2ccccc2)CC1

4 of these compounds, reformatted:
Compound | HPGD inh
O=C(c1ccco1)N1CCN(S(=O)(=O)c2ccc(C3CCCCC3)cc2)CC1 | -6%
Cc1nc2ccccc2c2oc(C(=O)N3CCC(N4CCCCC4)CC3)cc12 | -12%
CCN1CCN(C(=O)/C=C\C(=O)O)CC1 | -11%
O=S(=O)(c1cccc(-c2nnco2)c1)N1CCCC1 | 3%

Further records:
HPGD inh	smiles
-9%	Cn1c(=Nc2ccc(N3CCOCC3)cc2)ccc2ccccc21
0%	Cc1nc(CS(=O)(=O)c2ccccc2)cc(Sc2ccccc2Cl)n1
u	CCCn1nc2cc(C(=O)NCCc3cccs3)ccc2c1OCC
-13%	O=C1CCCc2sc3c(c2N1)CCCCC3
-3%	Cc1ccc2nc(SCC(=O)NNC(=O)c3ccccc3)[nH]c2c1
-25%	Cc1cc2nnc(SCC(=O)OC(C)C)n2c2ccccc12
-13%	Cc1ccc(S(=O)(=O)NC2c3cccc4cccc(c34)C2Sc2nncn2C)cc1 (stereo not given)
u	Nc1ccc(-c2cc(-c3ccc(N)cc3)nc(-c3ccccc3)n2)cc1
-5%	CCC[C@@H]1C[C@@]1(CCC)[C@@H](NC(=O)Oc1ccccc1)c1ccc(C(=O)OC)cc1

Not all compounds are listed, so the mix of outcomes need not match the whole.
